Assay outcomes deposited in PubChem BioAssay by National Center for Advancing Translational Sciences (NCATS).
Menin MLL FP FL = qHTS Assay for Inhibitors Targeting the Menin-MLL Interaction in MLL Related Leukemias: Competition With Fluorescein Labeled MLL-derived Peptide | Fluorescence polarization, fluorescein-MLL peptide displacement from menin | FP activity change, % at 61.4 µM | 290,000 tested, under 10 active | AID 1766, 2009; inconclusive = falling polarisation curve, or a change in total fluorescence; inactive = total fluorescence flat and polarisation flat or rising; no compound was filed as active; the % refers to the polarisation; negative = inhibition;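 further: % of control where 0% means no effect; inhibitors lower the polarisation; unlabelled MLL peptide was the positive control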
gsp antag = qHTS for Antagonists of gsp, the Etiologic Mutation Responsible for Fibrous Dysplasia/McCune-Albright Syndrome: qHTS | gsp-mutant cells, cAMP HTRF, 30 min; control for the full effect not named in the record | Potency, µM (highest dose often 76.9 µM), for the others: top-dose activity change, negative = inhibition, actives largely listed as inhibitors | 340,000 compounds, 0.4% hits | AID 624288, 2012; active = falling curve of any shape with a large fitted effect; inconclusive = falling curve, mostly with a smaller effect; inactive = flat or rising curve; cell line not stated here;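 further: intracellular cAMP measured with PDE inhibitor Ro 20-1724 present during compound exposure; potency means the concentration at half of the fitted maximal effect; on the % scale 0 is the no-effect control and ±100 the full control effect; nearly all actives have a fitted effect of over 65% in size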
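HTRF cAMP read-out (cAMP-d2 plus anti-cAMP antibody-K in lysis buffer, 30 min RT). Before lysis, cells are exposed to compounds with […] for 30 min at 37C in DPBS containing Ca/Mg, BSA and Tween 20.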
CtBP-E1A inh = qHTS Assay for Inhibitors of the CtBP/E1A Interaction; AlphaScreen GST-E1A/His-CtBP binding, 1536-well; active compounds read low; control for the full effect not named in the record; activity change, % (test concentration not listed); CtBP / adenovirus E1A interaction (AlphaScreen); 340,000 compounds, 0.49% hits; in the data active means activity change below about -65%; inconclusive means about -30% to -65%; inactive means above about -30%; further: on the % scale 0 is the no-effect control and ±100 the full control effect
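Protein mix (5X: 125 nM each GST-E1A, His-CtBP) was incubated with pinned compound 2 h at 37 deg C in dark, in 50 mM Tris pH 8.0 buffer with 300 mM NaCl. Glutathione donor and nickel acceptor beads followed; AlphaScreen signal read after 1 h.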
Sfp inh = qHTS Assay for Inhibitors of Bacillus subtilis Sfp phosphopantetheinyl transferase (PPTase) | Biochemical Sfp PPTase activity, qHTS | Potency, µM, inactives show max response, negative = inhibition, usual class: inhibitors | 310,000 compounds, 3.5% hits | AID 1490, 2009; active means well fitted inhibition curve with a large enough effect; inconclusive means small, poorly fitted or top-dose-only effect, or another doubt; inactive means no such curve, though single readings can be large or run the other way;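 further: the enzyme is Sfp with the accession as filed and its product quenches rhodamine fluorescence; potency means the concentration at half of the fitted maximal effect; 0% = enzyme reaction without inhibitor and -100% = no enzyme wells; top concentration of the series not given in the record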
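With Hepes-Na pH 7.6 buffer containing 10 mM MgCl2, Sfp (15 nM) modified BHQ-2-YbbR (12.5 uM) using rhodamine-CoA (5 uM). Two reads 30 minutes apart at 525/598 nm yielded each well's rate.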
TRPV1 potentiator = HTS Assay for Compounds that Act as Potentiators of the Vanilloid Receptor 1; Transient receptor potential cation channel subfamily V member 1 (Homo sapiens), Q8NER1; TRPV1-expressing cells, Fluo-8 calcium influx, capsaicin EC20 potentiation; host cell line not named in the record; control for the full effect not named in the record; potentiation, % at 8.33 µM; 320,000 compounds, 0.02% hits; AID 540277, 2011; active means potentiation above 80%; inconclusive means 30% to 80%; inactive means below 30%; further: 0% is about no effect
Target sequence (Q8NER1 whole entry, looked up): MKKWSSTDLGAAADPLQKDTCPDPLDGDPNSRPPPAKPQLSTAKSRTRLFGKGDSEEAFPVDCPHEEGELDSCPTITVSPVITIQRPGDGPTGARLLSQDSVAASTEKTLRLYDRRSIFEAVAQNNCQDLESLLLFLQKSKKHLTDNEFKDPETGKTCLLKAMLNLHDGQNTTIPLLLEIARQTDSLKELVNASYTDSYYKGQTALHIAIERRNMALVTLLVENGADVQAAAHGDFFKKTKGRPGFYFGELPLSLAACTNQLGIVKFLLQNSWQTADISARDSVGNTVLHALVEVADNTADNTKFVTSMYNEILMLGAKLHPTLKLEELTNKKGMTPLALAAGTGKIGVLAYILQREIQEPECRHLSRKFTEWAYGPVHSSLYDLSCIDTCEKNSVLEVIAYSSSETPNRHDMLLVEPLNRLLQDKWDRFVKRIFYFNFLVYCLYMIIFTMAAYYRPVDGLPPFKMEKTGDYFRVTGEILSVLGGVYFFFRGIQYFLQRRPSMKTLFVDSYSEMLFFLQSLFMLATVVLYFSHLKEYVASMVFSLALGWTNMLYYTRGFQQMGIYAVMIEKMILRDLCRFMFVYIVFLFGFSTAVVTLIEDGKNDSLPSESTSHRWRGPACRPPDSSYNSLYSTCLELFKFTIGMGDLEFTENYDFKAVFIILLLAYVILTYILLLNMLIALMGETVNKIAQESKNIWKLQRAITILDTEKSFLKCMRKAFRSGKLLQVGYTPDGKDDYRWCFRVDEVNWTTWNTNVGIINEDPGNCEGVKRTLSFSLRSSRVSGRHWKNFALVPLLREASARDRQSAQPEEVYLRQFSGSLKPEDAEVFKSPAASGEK
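TRPV1-expressing cells were cultured overnight at 35.5C and loaded with Fluo-8 calcium dye for 40 to 90 min at room temperature. After a 10 s baseline, compound was added and calcium influx was read kinetically for 3 min (ex 480/em 520 nm).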
gsp ag = qHTS for Agonist of gsp, the Etiologic Mutation Responsible for Fibrous Dysplasia/McCune-Albright Syndrome: qHTS; gsp mutant cells, cAMP HTRF, 30 min; control for the full effect not named in the record; Potency, µM (doses to about 76.9 µM), inactives show at the top dose activation (cAMP increase), actives largely listed as activators; 340,000 compounds, 0.13% hits; AID 624287, 2012; active = well fitted activation curve with a large enough effect; inconclusive = small, poorly fitted or top-dose-only effect, or another doubt; inactive = no such curve, though single readings can be large or run the other way; cell line not stated here;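 further: phosphodiesterase inhibitor Ro 20-1724 added with compounds to block cAMP breakdown; potency means the concentration at half of the fitted maximal effect; nearly all actives have a fitted effect of over 60% in size; about a fifth of the inactives were tested at one dose only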
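Cells stably selected in G418 were plated at 2000/well, grown 16-24 hr, then given compounds in DMSO with the PDE inhibitor […] (300 uM solution added) for 30 min at 37C; cAMP was read by HTRF.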
ClpP mod = qHTS Assay for Activators of ClpP; ATP-dependent Clp protease proteolytic subunit (Bacillus subtilis (strain 168)), P80244; purified B. subtilis ClpP, FRET peptide cleavage, 20 min; Potency, µM (series often up to 57.5 µM), for inactives: top-dose activity change, negative = active; 340,000 compounds, 1.9% hits; AID 651965, 2013; active = well fitted falling curve with a large enough effect; inconclusive = small, poorly fitted or top-dose-only effect; inactive = no such curve, though single readings can be large or run the other way; further: potency means the concentration at half of the fitted maximal effect; the source files actives as falling curves though it sought activators and does not explain the sign; nearly all actives have a fitted effect of over 65% in size; many hits overshoot -100%
Target sequence (P80244 whole entry, looked up): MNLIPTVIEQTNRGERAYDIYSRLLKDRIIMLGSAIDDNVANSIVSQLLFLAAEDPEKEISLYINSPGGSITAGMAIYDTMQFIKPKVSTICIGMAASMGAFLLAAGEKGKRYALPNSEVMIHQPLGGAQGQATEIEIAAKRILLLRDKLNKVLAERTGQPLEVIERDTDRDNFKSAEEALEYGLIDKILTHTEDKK
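Buffer: 100 mM Tris/HCl pH8, 100 mM KCl, 0.05% low protease BSA, 2.5% glycerol, 0.01% Tween-20. ClpP 10 microg/mL final; 20 min RT; delta FRET normalized to ADEP and DMSO controls.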
Numbers without * were called inactive; ? = inconclusive; · = not tested or not shown; ! = not active in a repeat; [ ] = another dose, or the depositor's remark.

#	molecule	Menin MLL FP FL	gsp antag	CtBP-E1A inh	Sfp inh	TRPV1 potentiator	gsp ag	ClpP mod
1	CCN1C(=O)[C@H]2[C@@H](c3ccc(-c4ccc(OC)cc4)c(OC)c3)N[C@@](CC(C)C)(C(=O)OC)[C@H]2C1=O	·	-21%	0	·	·	·	5.6%
2	COc1ccc([N+](=O)[O-])cc1NC1CCN(C(=O)c2cccs2)CC1	·	?	-16	5%	?	?	-1.2%
3	Cc1ccc(-n2nnnc2SCC(=O)N2Cc3ccccc3CC2C(=O)O)cc1 (stereo not given)	-0.1	-10%	-6	10%	2	23%	-0.7%
4	O=C1CCCN1c1ccc(S(=O)(=O)N2CCC(c3ccccc3)CC2)cc1	-0.7	-11%	7	7%	-3	19%	0.2%
5	CCOc1ccc(CCNC(=O)c2cccc(N3CCCC3=O)c2)cc1OCC	1.0	-1%	1	23%	0	-18%	-0.2%
6	CCCCN(C)C(=O)c1ccc2c(c1)S(=O)(=O)c1ccccc1C2=O	·	17%	0	6%	-6	-7%	0.3%
7	Cc1ccc(S(=O)(=O)NN2C(=O)/C(=C\c3ccc(Cl)cc3)SC2=S)cc1	·	-13%	2	17%	8	2%[15.4 µM]	·
8	Cc1cc(=O)oc2c3c(cc(OCC(=O)NCCC(=O)O)c12)OC(C)(C)CC3	0.6	-1%	-23	13%	0	?	3.9%
9	Cc1ccc(-n2c(CCC(=O)O)ccc2-c2cccs2)cc1C	0.9	-10%	-2	45µM*	12	?	11µM*!
10	Cc1cc(NS(=O)(=O)c2ccc(NC(=O)C(C)Oc3cc(C)c(Cl)c(C)c3)cc2)no1 (stereo not given)	·	-19%	-11	12%	15	-1%[15.4 µM]	1.5%
11	COC(=O)C1CCN(C(=O)Cn2nnc(-c3cccc(F)c3)n2)CC1	-1.4	-14%	7	5%	-27	-15%	·
12	NC(=S)N/N=C/c1c[nH]c2ccc(OCc3ccccc3)cc12	6.6	-15%	·	32µM*	6	-46%[inhibitor]	-3.5%
13	COc1ccc(F)cc1C(=O)C1CCCN(Cc2ccc(Oc3ncccn3)cc2)C1 (stereo not given)	-3.8	-9%	5	16%	-7	15%[15.4 µM]	·
14	Cc1ccccc1NC(=S)NNC(=O)c1ccncc1	0.4	8%	11	25%	5	-2%[15.4 µM]	·
15	COc1ccc(NC(=S)N2CCC(N(C)CC3CCCO3)CC2)cc1 (stereo not given)	0.8	2%	2	18%	24	19%	-1.7%
16	O=C(Cc1cccc2ccccc12)NCC(=O)Nc1ccccc1F	0.6	7%	3	-7%	5	?	-0.4%
17	O=C(OCc1ccccc1)/C(=C/c1cccc2ccccc12)NC(=O)c1ccccc1	-1.1	-12%	-18	-13%	4	-10%[15.4 µM]	-1.1%
18	CC(C)(C)c1nc(SCC(=O)NCc2ccco2)c2ccccc2n1	-2.0	-9%	-5	-17%	-9	?	-0.2%
19	COCC(=O)Oc1c(S(=O)(=O)c2ccccc2)c(C)nn1C(C)(C)C	1.6	1%	-11	13%	12	-2%[15.4 µM]	·
20	N#Cc1ccc(-c2ccccc2)nc1SCCN1CCOCC1	6.0	-29%	0	-1%	-4	-18%[15.4 µM]	·
21	COc1ccc(OC)c(N(C)S(=O)(=O)c2cc3c(cc2C)NC(=O)CO3)c1	0.8	-15%	3	0%	13	-7%	0.5%
22	O=c1cnc2ccccc2n1Cc1ccccc1	·	·	0	·	·	?	0.9%
23	COc1cccc(CC(=O)OCC(=O)N(C)CC(=O)Nc2ccc(Cl)c(C(F)(F)F)c2)c1	·	-10%	-14	·	-12	-18%	4.1%
24	CCOc1ccc(CN2CCNC(=O)C2CC(=O)NCCN2CCOC2=O)cc1 (stereo not given)	·	5%	-19	0%	10	7%[15.4 µM]	28µM*
25	Cc1ccc(OCC(=O)Nc2ccc(N3CCOCC3)cc2)cc1	-1.0	5%	3	-1%	-22	-16%	-1.1%
26	COC(=O)c1c(C)[nH]c(C(=O)C(C)OC(=O)C2CC(=O)N(CCc3ccccc3)C2)c1C (stereo not given)	·	3%	1	·	8	-39%[inhibitor]	0.8%
27	COc1ccc(NC(=O)C2CCN(c3nnnn3-c3ccccc3)CC2)cc1	4.0	10%	0	15%	-4	?	1.2%
28	CN=C(Nc1cc(C)nn1CCC#N)c1ccccc1	0.1	0%	-1	6%	3	7%	-0.5%
29	O=C(NCCCN1CCN(c2ccc(F)cc2)CC1)NC12CC3CC(CC(C3)C1)C2	-4.2	6%	-1	2%	-6	-7%	·
30	N#CCC(=O)Nc1ccc(C(=O)OCC(=O)N=c2sccn2Cc2ccccc2Cl)cc1	·	-26%	-4	·	2	15%	-2.1%
31	O=S(=O)(Nc1nc2ccccc2nc1Cl)c1ccc(F)cc1	3.8	2%	-16	22%	11	?	-30%
32	Cc1cc2c(cc1C)C(=O)C(Br)=C(N)C2=O	·	4%	?	·	·	-4%	·
33	Cc1ccc2cc(CN(Cc3ccco3)C(=S)NCC3CCCO3)c(=O)[nH]c2c1 (stereo not given)	-3.9	-9%	-10	8%	-21	0%[15.4 µM]	·
34	O=S(=O)(Nc1ccc2ccccc2n1)c1ccccc1	·	1%	0	6%	-4	-2%	3.9%
35	CCS(=O)(=O)c1ccc(-c2cccc(NC(=O)COc3ccc(Cl)cc3)c2)nn1	-1.2	7%	-12	15%	4	-24%	-2.3%
36	Cc1ccc(-c2csc(SCC(=O)Nc3cc(C)on3)n2)cc1	2.9	0%	8	13%	2	?	1.0%
37	CC(C)N(C(=O)[C@H]1CC(CC(=O)NCCCN(C)C)C(=O)N2CCc3c([nH]c4ccccc34)[C@]12C)C(C)C (stereo not given in full)	·	8%	1	·	·	·	0.6%
38	O=C(/C=C/c1ccccc1)N1CCN(Cc2nc3ccccc3c(=O)[nH]2)CC1	-0.6	-12%	7	-5%	-8	-33%[inhibitor]	-0.3%
39	COc1cccc(/C=c2\s/c(=C\C(=O)C(C)(C)C)[nH]c2=O)c1	-1.9	-11%	-1	4%	-6	3%[15.4 µM]	-9.0%
40	CSc1nsc(NC(=O)CCNC(=O)c2ccc([N+](=O)[O-])cc2)n1	2.1	-6%	0	0%	-2	-14%[15.4 µM]	?
41	O=C(Nc1ccc(S(=O)(=O)Nc2nccs2)cc1)c1ccc(F)cc1	-3.0	-4%	2	7%	3	-1%[15.4 µM]	·
42	Cc1ccccc1SCC(=O)NNC(=O)c1ccccc1O	·	13%	-2	27%	10	20%	-16%
43	COc1cccc(OCC(O)CN2CCN(c3ccccn3)CC2)c1 (stereo not given)	0.8	6%	-16	-4%	-2	10%[15.4 µM]	-2.7%
44	CC(C)(C)S(=O)N1Cc2cc(CO)cc(-c3ccccc3)c2[C@H]1CCO (stereo not given in full)	·	-3%	-2	·	·	·	-1.1%
45	COc1cccc(OC)c1OCCCc1c(C)n[nH]c1C	-0.8	-1%	5	10%	-5	15%	-0.1%
46	Cc1ccc(OCC(=O)NCc2ccccn2)cc1	4.1	0%	-2	0%	-11	-33%[inhibitor]	0.3%
47	COCCCNC(=O)c1cc(C(=O)c2c(-c3c(Cl)cccc3Cl)noc2C)c[nH]1	0.0	2%[15.4 µM]	2	18%	0	-31%[inhibitor]	-1.4%
48	O=C1c2sc3nc4ccccc4n3c2C(=O)N1c1ccccc1Cl	8.3	-1%	-10	40µM*	-1	?	-2.1%
49	CCOC(=O)Cc1ccc(NC(=O)c2ccc([N+](=O)[O-])cc2)cc1	0.6	5%	·	17%	-29	-20%	2.7%
50	Cc1cccc(C(C)C)c1NC(=O)c1cc2ccccc2o1	3.7	-2%	·	5%	-5	4%	-2.8%

With a hit mark in Sfp inh, among the entries above:
no. | smiles | Menin MLL FP FL | gsp antag | CtBP-E1A inh | Sfp inh | gsp ag
9 | Cc1ccc(-n2c(CCC(=O)O)ccc2-c2cccs2)cc1C | 0.9 | -10% | -2 | 45µM* | ?
12 | NC(=S)N/N=C/c1c[nH]c2ccc(OCc3ccccc3)cc12 | 6.6 | -15% | · | 32µM* | -46%[inhibitor]
48 | O=C1c2sc3nc4ccccc4n3c2C(=O)N1c1ccccc1Cl | 8.3 | -1% | -10 | 40µM* | ?

(cont.)
#	molecule	Menin MLL FP FL	gsp antag	CtBP-E1A inh	Sfp inh	TRPV1 potentiator	gsp ag	ClpP mod
51	Cc1ccc(-c2noc(CCCC(=O)NCC3CCCO3)n2)cc1 (stereo not given)	3.1	8%	0	1%	-12	6%[15.4 µM]	·
52	O=C(CN1CCC(Cc2ccccc2)CC1)N1CCc2ccccc2C1	0.6	8%	·	-25%	4	4%[15.4 µM]	·
53	Cc1ccc(-c2nc3ccccc3[nH]2)cc1NC(=O)c1ccc2c(c1)OCO2	2.2	0%	-5	22%	20	8%	-5.7%
54	O=C(CSc1nnc(Cc2ccccc2)o1)c1ccccc1	-0.5	1%	0	7%	14	23%	-0.4%
55	Cc1ccc(-c2ncns2)cc1	-1.2	7%	-5	11%	2	-4%[15.4 µM]	0.3%

Some of these compounds in order of their number in Menin MLL FP FL, low to high:
No. | mol | Menin MLL FP FL
55 | Cc1ccc(-c2ncns2)cc1 | -1.2
54 | O=C(CSc1nnc(Cc2ccccc2)o1)c1ccccc1 | -0.5
52 | O=C(CN1CCC(Cc2ccccc2)CC1)N1CCc2ccccc2C1 | 0.6
53 | Cc1ccc(-c2nc3ccccc3[nH]2)cc1NC(=O)c1ccc2c(c1)OCO2 | 2.2
51 | Cc1ccc(-c2noc(CCCC(=O)NCC3CCCO3)n2)cc1 (stereo not given) | 3.1
